Compound activity deposited in PubChem by National Center for Advancing Translational Sciences (NCATS).
NPR1 antag: human Npr1 receptor antagonism; HEK293 hNpr1 GloSensor cGMP, ANP-stimulated luminescence; Potency, µM (highest dose often 46.3 µM), inactives show at the highest dose activity change, negative = inhibition, most hits filed as inhibitors; 76,000 tested, 1.6% active; AID 1347048; active = well fitted inhibition curve with a large enough effect; inconclusive = small, poorly fitted or top-dose-only effect; inactive = no such curve, though single readings can be large or run the other way;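 also: nearly all actives have a fitted effect of over 60% in size; nearly all hits also lower the signal before the agonist is added; a reference antagonist and vehicle were the controls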
Target sequence (P16066 whole entry, looked up): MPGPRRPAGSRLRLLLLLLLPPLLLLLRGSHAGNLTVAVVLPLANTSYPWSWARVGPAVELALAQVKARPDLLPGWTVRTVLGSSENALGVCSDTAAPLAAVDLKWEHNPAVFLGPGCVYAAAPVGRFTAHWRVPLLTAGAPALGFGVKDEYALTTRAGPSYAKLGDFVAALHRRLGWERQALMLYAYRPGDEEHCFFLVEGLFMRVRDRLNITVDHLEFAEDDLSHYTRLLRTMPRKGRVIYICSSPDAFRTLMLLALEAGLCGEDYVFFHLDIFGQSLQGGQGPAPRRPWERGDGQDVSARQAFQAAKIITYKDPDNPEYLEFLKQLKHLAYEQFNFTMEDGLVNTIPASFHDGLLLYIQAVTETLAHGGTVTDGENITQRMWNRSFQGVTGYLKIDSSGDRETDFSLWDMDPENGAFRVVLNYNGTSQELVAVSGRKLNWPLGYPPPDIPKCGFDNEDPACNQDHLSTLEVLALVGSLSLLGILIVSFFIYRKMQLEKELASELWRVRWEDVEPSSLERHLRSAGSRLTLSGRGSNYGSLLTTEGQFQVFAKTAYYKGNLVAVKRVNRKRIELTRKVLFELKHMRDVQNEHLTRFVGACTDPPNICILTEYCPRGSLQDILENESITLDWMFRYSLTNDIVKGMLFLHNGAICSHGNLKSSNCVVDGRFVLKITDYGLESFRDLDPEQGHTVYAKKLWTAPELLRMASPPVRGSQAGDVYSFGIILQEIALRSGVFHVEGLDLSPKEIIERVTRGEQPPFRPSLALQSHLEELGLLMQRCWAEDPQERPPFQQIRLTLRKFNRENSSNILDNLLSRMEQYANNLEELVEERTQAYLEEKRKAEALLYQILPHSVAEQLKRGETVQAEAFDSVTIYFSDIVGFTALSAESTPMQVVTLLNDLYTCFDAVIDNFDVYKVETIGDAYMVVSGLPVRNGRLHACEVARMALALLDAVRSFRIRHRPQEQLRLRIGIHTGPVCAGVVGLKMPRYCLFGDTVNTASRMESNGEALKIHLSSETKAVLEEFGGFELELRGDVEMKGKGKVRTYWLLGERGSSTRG
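Compound pre-incubated 30 min at room temperature on GloSensor-loaded HEK293 cells stably carrying hNpr1 and the pGS-40F cGMP biosensor. Stimulation uses hNppA at 0.1 nM final; luminescence is taken at baseline and 20 min post-agonist.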
* hit, by the source's call; ? = inconclusive; [ ] = dose if it differs, or a comment. % is scaled to controls: 0 for no effect and ±100 for the full control effect; potency is read from the fitted curve at half-maximal effect. Only part of the results is shown (hit frequency here may not be typical).

SMILES	NPR1 antag
Cc1cn2nc(C(=O)NCCCc3ccccc3)cc2c(N2CCCC2)n1	4%
Cc1nc(C2CC(N)C2)cc(N2CCC(CN3CCCC3=O)CC2)n1 (centres undefined)	15%
CN1c2cc(C(=O)NC3CCCC3)ccc2C(=O)N2CCCC21 (centres undefined)	4%
COc1ncc(CN2CC[C@@H]3OCC(=O)N(Cc4cccc(C(N)=O)c4)[C@H]3CC2)cn1	-1%[70.6 µM]
CCc1noc(-c2cn(C3CCN(C(=O)c4ccc(OC)cc4C)CC3)nn2)n1	?
Cc1nc(NC(C)c2nc(-c3cccnc3)no2)c2cccnc2n1 (centres undefined)	0%
O=C(c1cnc[nH]1)N1C[C@@H](COCC2CC2)[C@H](c2ccccn2)C1	2%
CCn1nccc1C(=O)N1CCC(OCCOc2ccc(F)cc2)CC1	-26%
CC(NC1CCC2(CCNCC2)CC1)c1ccc(S(C)(=O)=O)cc1 (centres undefined)	3%
CC1CCC2(CC1)NC(=O)N(CC(=O)NCc1ccccc1F)C2=O (centres undefined)	1%
COc1ccc2[nH]cc(CCNC(=O)C3CCCCC(=O)N3Cc3ccccc3)c2c1 (centres undefined)	-15%
O=C(c1ccccc1)N1CCCCC1c1nc(-c2cccnn2)no1 (centres undefined)	11%
O=C(N1CCC2(CC1)OCCCC2O)C1(c2ccc(Cl)cc2)CCC1 (centres undefined)	-3%
CN(Cc1ccsc1)c1ccc(C(=O)N2CCCN(c3ncccn3)CC2)cn1	-14%
CCn1cc(CN2CC[C@H](CO)[C@H](N(C)C)C2)c(C)n1	6%
COc1ccc(-c2cnc3[nH]cc(CC(=O)NCc4cccnc4)c3c2)cc1OC	-2%[70.6 µM]
O=C1CCN(S(=O)(=O)c2ccccc2)CCCN(C(=O)Cc2cccnc2)CCN1	8%
O=C(O)C1(Oc2ccc3ccccc3c2)CCN(c2ncnc3nc[nH]c23)CC1	14%
O=C(NCC1CCOCC1)c1n[nH]c2ccccc12	0%
CNC(=O)[C@H]1C[C@H](Oc2ccccc2)CN1C(=O)c1cc(-c2ccccc2)n[nH]1	-1%
COCC1CN(C2CCC2)CC12CCN(C(=O)c1ccn[nH]1)CC2 (centres undefined)	-2%
O=C1CC2(CCN(CC3CCCCC3)CC2)Oc2ccccc2N1	2%[70.6 µM]
Cc1ccccc1-c1noc(CN(C)Cc2cc(-c3ccncc3)no2)n1	-14%
COCc1ccc2c(c1)c(OC(C)(C)C(=O)NCc1ccncc1)nn2Cc1cccc(OC)c1	4%
O=c1[nH]c(C2CCCN([S+](=O)([O-])c3cccc(C(F)(F)F)c3)C2)nn1-c1ccc(F)cc1 (centres undefined)	2%
SMILES	NPR1 antag
Cc1ccc(-c2cc3c(=O)n(CCNC(=O)c4ccc(F)c(F)c4)ccn3n2)c(C)c1	-23%
O=S(=O)(NC[C@H]1O[C@@H](CO)[C@@H](O)[C@H]1N1CCOCC1)c1ccccc1	-2%[70.6 µM]
CN1C[C@H](NCc2cccc(Cl)c2)CCC[C@@H](C(=O)NCc2cc(F)cc(F)c2)CC1=O	5%
CCn1nccc1C(=O)N1CCC(N2CC3CC(C2)[C@H]2CCCC(=O)N2C3)CC1 (some centres undefined)	5%
CN(CC1CCOC1)C(=O)NCc1ccco1 (centres undefined)	-4%
Cc1cnc(-c2ccccc2)n1C1CCCN(C(=O)C(C)C)C1 (centres undefined)	2%
CCOc1ccccc1NC(=O)N1C[C@H](Oc2ccccc2)C[C@@H]1C(=O)NCCOC	-1%
CN1C[C@@H](NC(=O)c2cccs2)C[C@H]1c1nc(-c2ccc(F)cc2)no1	-30%[70.6 µM]
COCCN(C)C[C@@H]1CN(C(=O)c2ccc(-c3ccccc3)n2C)C[C@@H]1CO	2%
CCOc1ccc(-c2cc3c(=O)n(CCNC(=O)Cc4cccs4)ccn3n2)cc1	-3%
Cc1noc(-c2cn(C3CCN(C(=O)c4cc(Cl)ccc4F)CC3)nn2)n1	-8%
O=C(COc1ccc(NC(=O)C2CC2)cn1)NCc1cc(F)cc(F)c1	-1%
O=C(c1ccoc1)N1CCC2(CC1)CC(CO)N(C(=O)c1ccccc1)C2 (centres undefined)	-2%
Cn1ncc(CN2CCc3nc(-c4ccc(F)cc4F)[nH]c3C2)c1C1CC1	-2%
CN(C)c1nccnc1OC1CCN(C(=O)C2CCCCC2)C1 (centres undefined)	3%
O=C(Cn1cccc1-c1nc(-c2ccc(F)cc2)no1)NCCC1=CCCCC1	-4%
C[C@@H](NC(=O)c1cccs1)c1onc(-c2cccnc2)c1C(=O)O	3%[70.6 µM]
CN1CCN(c2cc(=O)c3ccnc(-c4ccc(Cl)cc4)c3o2)CC1	-13%[70.6 µM]
NC(=O)c1ccccc1OCC(=O)N1CC(CNC(=O)Nc2ccccc2)C2(C1)CN(c1ccccc1)C2 (centres undefined)	-1%
CC(C)CCN1CCC(N2CCN(C(=O)c3ccncc3)CC2)C1=O (centres undefined)	3%
CN(C)[C@@H]1CN(C2CCCCC2)CC[C@@H]1CO	-1%
CC(C)CC(=O)N[C@H](C)c1onc(-c2cccnc2)c1C(=O)O	0%[70.6 µM]
C[C@@H](N)C(=O)N1CCC(C(=O)Nc2cccc(-c3cccc(Cl)c3)c2)CC1	4%
O=C(NCCc1c[nH]c2ccccc12)c1ccccc1C1CCNC1 (centres undefined)	0%
Cc1cn2nnc(C(=O)NC3CCN(Cc4ccccc4)CC3)c2c(=O)[nH]1	8%

Filtered by structure, the compounds so far with a furan ring, fused or not
SMILES	NPR1 antag
CN(CC1CCOC1)C(=O)NCc1ccco1 (centres undefined)	-4%
O=C(c1ccoc1)N1CCC2(CC1)CC(CO)N(C(=O)c1ccccc1)C2 (centres undefined)	-2%

5 compounds drawn at random from those above, as already listed:
SMILES	NPR1 antag
CC(C)CC(=O)N[C@H](C)c1onc(-c2cccnc2)c1C(=O)O	0%[70.6 µM]
CC(C)CCN1CCC(N2CCN(C(=O)c3ccncc3)CC2)C1=O (centres undefined)	3%
O=C(COc1ccc(NC(=O)C2CC2)cn1)NCc1cc(F)cc(F)c1	-1%
Cc1noc(-c2cn(C3CCN(C(=O)c4cc(Cl)ccc4F)CC3)nn2)n1	-8%
O=C(Cn1cccc1-c1nc(-c2ccc(F)cc2)no1)NCCC1=CCCCC1	-4%

Next results follow:
SMILES	NPR1 antag
O=C1CCN(S(=O)(=O)c2ccccc2)CCCC(C(=O)NCCc2ccccc2)CCN1 (centres undefined)	6%
CCC(=O)N1CCC(n2c(C)cnc2-c2ccncc2)CC1	-3%
CN1C[C@H](NS(C)(=O)=O)CCC[C@@H](C(=O)NCc2cc(F)cc(F)c2)CC1=O	2%[70.6 µM]
Cc1cc(=O)n(CC(=O)Nc2ccccc2)c(-c2ccc(F)cc2)n1	-17%
Cc1nc2c(c(-c3ccc(O)cc3)n1)CN(Cc1cncs1)CC2	4%[70.6 µM]
CN1CC[C@H](c2nnc(-c3ccc(Cl)cc3)o2)C1	3%[70.6 µM]
COCCNC(=O)[C@H]1C[C@H](Oc2ccccc2)CN1C(=O)Cc1cccc(C)c1	2%
COCCN1C(=O)c2ccccc2C(C(=O)NCc2cccc(F)c2)C12CCCC2 (centres undefined)	-8%
COc1cccc(C(=O)N[C@H]2[C@H](O)[C@H](O)C[C@@H]2c2ccc(C(F)(F)F)nc2)c1	-1%[70.6 µM]
Cc1occc1C(=O)N1CC(F)(F)C[C@H]1c1nc(C2CC2)no1	-6%
COc1ccccc1C(=O)NCc1nnc2c(-c3nc(C(C)C)no3)cccn12	-12%
Cc1nccn1CC(=O)N1CCCC(c2[nH]ccc2C(N)=O)C1 (centres undefined)	8%
O=C(NCc1ccc(Cl)cc1)C1Cn2cccc2C(=O)N1Cc1cccnc1 (centres undefined)	-2%
COc1cccc(CC(=O)N2CCCC3(C2)NC(=O)N(Cc2ccc(C)cc2)C3=O)c1 (centres undefined)	2%
COc1ccc(Nc2ccc3c(n2)CN(Cc2ccccc2C)C(=O)CO3)cc1	?
CN(Cc1cccnc1)C(=O)c1ccc(N2CC3CC(C2)[C@H]2CCCC(=O)N2C3)nc1 (some centres undefined)	-5%
COc1cccc(CNC(=O)[C@@H]2C[C@@H](O)CN2C2CCN(C(=O)Cc3ccc(Cl)cc3)CC2)c1	7%
CCOc1ccc2c(n1)CCN(C(=O)Nc1cccc(CC)c1)C2	-30%
COc1ccc(C(=O)N[C@@H]2CCC[C@@H]2C(=O)NCc2cccnc2)cc1	-3%
CCCCCC(=O)Nc1nc2c(s1)C[C@@H]1[C@](C)(CO)[C@H](O)CC[C@@]1(C)[C@@H]2CC(=O)N[C@H](C)c1ccccc1	1%
CN(Cc1cnccn1)C(=O)c1csc2nc(-c3cccc(C(F)(F)F)c3)cn12	16%
CCCNC(=O)N(C1CCOCC1)C1CCN(C(=O)CCC(=O)c2ccc(F)cc2)CC1	7%
Cc1cccc(N2CCN(C(=O)CCn3ccn4nc5c(c4c3=O)CCCC5)CC2)c1	-1%
CCS(=O)(=O)N1C[C@@H](COc2cccnc2)[C@H](c2ccccn2)C1	-2%
CC(C)C[C@@H](NC(=O)C1=C[C@@H](NC(=O)c2ccco2)[C@@H](O)[C@H](O)C1)C(N)=O	4%[70.6 µM]
SMILES	NPR1 antag
CN1CCCC2(CCN(C(=O)CCc3ccc(Cl)cc3)C2)C1=O (centres undefined)	-1%
CCN(Cc1ccccn1)C(=O)c1coc(COc2ccc3c(c2)OCO3)n1	2%
Cc1cccc(CNC(=O)[C@H]2CCC[C@H]2NC(=O)c2cnc(C)cn2)c1	-1%
OCC1(CN2CCCC2)CCN(Cc2cc(F)cc(Cl)c2)CC1	6%
Cc1cccc(CNC(=O)CCc2conc2-c2ccc(F)cc2)c1	1%
Cc1cc(C(=O)N[C@@H]2CCC[C@@H](C(=O)N3CCN(C)CC3)CC(=O)N(C)C2)no1	2%[70.6 µM]
CNC(=O)CC1C(=O)NCCN1C(=O)c1cc(COc2ccccc2)[nH]n1 (centres undefined)	3%
O=C1[C@@H]2C[C@@H](CN2Cc2ncc[nH]2)Oc2ccccc2N1Cc1ccc(OC(F)(F)F)cc1	1%
COCCN1CCCCCC(O)c2cc(C(=O)NCCCN3CCCc4ccccc43)ccc21 (centres undefined)	-8%
O=C(c1ccc[n+]([O-])c1)N1CCC2(CCCN(CC3CCCCC3)C2=O)C1 (centres undefined)	14%
CN1C(=O)CCC2(CNC(=O)c3nn(C)c4ccccc34)CCC=C12 (centres undefined)	10%
CN(C)c1cccc(C(=O)N2CCC3(CC2)NC(=O)N(Cc2ccccc2)C3=O)c1	0%
Cc1noc(C)c1-c1cc2c(c(-c3ccccc3Oc3ccccc3)c1)C(=O)N(C)C2	-23%[70.6 µM]
Cc1cc(C(=O)N[C@H]2[C@H](O)[C@H](O)C[C@@H]2c2cccnc2)n(C)n1	5%[70.6 µM]
Cc1nn(C)cc1C(=O)N1CCC2(CC1)CN(c1ncccn1)CC2CO (centres undefined)	-5%
Cc1ccc(CN2CCC(N3CCCC(C(=O)NCCc4ccccc4)C3)CC2)o1 (centres undefined)	4%
O=C1CCN(Cc2cccnc2)CCCC(C(=O)NCCCN2CCOCC2)CCN1 (centres undefined)	2%
CC(C)CN(CC(C)C)C[C@H]1O[C@H](Cc2cc(COc3ccccc3)on2)CC[C@@H]1O	5%[70.6 µM]
O=C(NCc1ccccc1)O[C@H]1COCCN(c2nc3ccccc3s2)C1	5%[70.6 µM]
OC1CN(Cc2ccccc2)CCN(C2CCN(c3ccccc3F)CC2)C1 (centres undefined)	1%
COc1ccc(-c2cc(N3CCCC(NC(=O)c4cccc(C(F)(F)F)c4)C3)n[nH]2)cc1 (centres undefined)	-18%
O=C1[C@@H]2C[C@@H](CN2Cc2nccs2)Oc2ccccc2N1Cc1ccc(OC(F)(F)F)cc1	-30%
Cc1ccc(NC(=O)C2CC(=O)N(c3n[nH]c4cc(Br)ccc34)C2)cc1 (centres undefined)	-2%
CS(=O)(=O)c1ccc(CN2C[C@@H]3C[C@H]2C(=O)N(Cc2ccc(OC(F)(F)F)cc2)c2ccccc2O3)cc1	-28%
O=C1NC(C(=O)Nc2ccccc2)Cn2cccc21 (centres undefined)	0%
SMILES	NPR1 antag
CCS(=O)(=O)N1CCCC(Cc2ncc(C)n2C(C)C)C1 (centres undefined)	-13%
Cc1noc2c(N3CCNC(=O)C3)cc(-c3cccs3)nc12	4%[70.6 µM]
CCOc1ccccc1NC(=O)N1CCCC1c1nc(CCOCC2CCOCC2)no1 (centres undefined)	3%
Cc1cnc(NC(=O)c2ccc3c(c2)OCCN(CCC(C)C)C3)s1	-23%[70.6 µM]
CC(C)CNC(=O)Cc1ccc(N(Cc2cccc(F)c2)C(=O)c2ccco2)cc1	0%
Cc1ccc(NC(=O)N2CCC(CCNC(=O)c3ccco3)CC2)cc1F	5%
CC(=O)NC1(C)CCN(Cc2cccc(-c3ccc(N4CCOCC4)cc3)c2)C1 (centres undefined)	4µM*

By substructure, those above containing a thiophene ring, fused or not
SMILES	NPR1 antag
CN(Cc1ccsc1)c1ccc(C(=O)N2CCCN(c3ncccn3)CC2)cn1	-14%
CN1C[C@@H](NC(=O)c2cccs2)C[C@H]1c1nc(-c2ccc(F)cc2)no1	-30%[70.6 µM]
CCOc1ccc(-c2cc3c(=O)n(CCNC(=O)Cc4cccs4)ccn3n2)cc1	-3%
C[C@@H](NC(=O)c1cccs1)c1onc(-c2cccnc2)c1C(=O)O	3%[70.6 µM]
Cc1noc2c(N3CCNC(=O)C3)cc(-c3cccs3)nc12	4%[70.6 µM]

3 compounds from above, ordered by length of the SMILES, ascending:
SMILES	NPR1 antag
O=C1NC(C(=O)Nc2ccccc2)Cn2cccc21 (centres undefined)	0%
OCC1(CN2CCCC2)CCN(Cc2cc(F)cc(Cl)c2)CC1	6%
NC(=O)c1ccccc1OCC(=O)N1CC(CNC(=O)Nc2ccccc2)C2(C1)CN(c1ccccc1)C2 (centres undefined)	-1%
